MenB inh: M. tuberculosis MenB inhibitors, primary screen, biochemical, absorbance; MenB enzyme assay, absorbance read-out; some hits fall short of the stated cut; inhibition, %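 (about 12 µg/mL by stock and volumes)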; actives 0.43% (n = 100,000);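 active means mean of two replicates above 30%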;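 further: 0% = no compound and 100% = wells with inactive enzyme; the first replicate is given; strong numbers were not always called active; inactives centre near -10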
PV pol inh: poliovirus RdRp elongation inhibitors, primary screen, biochemical, fluorescence polarization, total intensity; Genome polyprotein (Poliovirus type 1 (strain Mahoney)), P03300; poliovirus polymerase elongation; stronger effect = lower value; % elongation, % (compound at 16.7 µg/mL); actives 0.66% (n = 150,000); in the data active means % elongation below about 90%; further: some results filed as inactive read as strong as hits
Target sequence (P03300 1749-2209 limits assumed): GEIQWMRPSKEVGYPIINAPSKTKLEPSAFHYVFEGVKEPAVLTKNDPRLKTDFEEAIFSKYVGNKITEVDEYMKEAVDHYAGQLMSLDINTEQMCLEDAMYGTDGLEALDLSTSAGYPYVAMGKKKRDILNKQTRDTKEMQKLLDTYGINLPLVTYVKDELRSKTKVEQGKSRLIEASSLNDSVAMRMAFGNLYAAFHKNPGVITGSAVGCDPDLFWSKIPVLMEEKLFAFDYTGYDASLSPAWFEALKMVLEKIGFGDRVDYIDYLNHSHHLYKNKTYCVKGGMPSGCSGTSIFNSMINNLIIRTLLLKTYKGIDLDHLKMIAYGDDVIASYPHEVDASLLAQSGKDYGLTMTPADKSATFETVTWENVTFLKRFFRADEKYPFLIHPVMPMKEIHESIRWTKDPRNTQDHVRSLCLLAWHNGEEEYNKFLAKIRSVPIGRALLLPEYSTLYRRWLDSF
Mtb MbtI inh: MbtI salicylate synthase inhibitors, primary screen, biochemical, fluorescence intensity | P9WFX0 | purified MbtI enzyme, fluorescence intensity read-out | inhibition, %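 (about 17 µg/mL by stock and volumes)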 | actives 0.89% (n = 100,000);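 active means above 50% in both replicates, above 80% if mildly self-fluorescent; inactive means the rest, strongly fluorescent compounds included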;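 further: 0% = mean of negative and 100% = mean of positive controls; one replicate is shown; some compounds called inactive have numbers as strong as hits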
Target sequence (P9WFX0 whole entry, looked up): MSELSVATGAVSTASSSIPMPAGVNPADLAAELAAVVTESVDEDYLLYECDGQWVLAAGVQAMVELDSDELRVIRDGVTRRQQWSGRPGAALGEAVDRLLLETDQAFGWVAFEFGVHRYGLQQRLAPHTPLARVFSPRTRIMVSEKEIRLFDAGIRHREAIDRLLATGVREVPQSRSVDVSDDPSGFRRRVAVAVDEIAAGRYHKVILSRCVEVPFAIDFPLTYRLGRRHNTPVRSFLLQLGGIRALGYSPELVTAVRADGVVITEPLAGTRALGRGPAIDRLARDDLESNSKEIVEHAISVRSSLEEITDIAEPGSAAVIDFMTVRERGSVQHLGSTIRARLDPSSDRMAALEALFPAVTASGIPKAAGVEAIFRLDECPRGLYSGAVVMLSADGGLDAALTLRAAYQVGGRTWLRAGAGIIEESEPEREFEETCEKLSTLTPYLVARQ
PV pol inh intensity: second read-out of PV pol inh, no call of its own (marks repeat the call); % elongation; measured here: total intensity read-out; formula for this scale not given here;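 total fluorescence in place of polarization; lower means less elongation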
The depositor's hits bear a star; i = inactive; . = no result given; & = joins results of further samples.

SMILES	MenB inh	PV pol inh	PV pol inh intensity	Mtb MbtI inh
O=C(CCN1C(=O)C2CC=CCC2C1=O)OCn1nnc2ccccc2c1=O (configuration not stated)	-18	108	114	-9
O=C(NC1CCCC1)C(c1ccncc1)N(Cc1ccco1)C(=O)Cn1nnc(-c2ccc(Cl)cc2)n1 (configuration not stated)	-20	101	102	1
CCN(CC)C(=O)C12CC3CCC(CC(C3)C1)C2	-34	101	98	3
CCn1c2ccccc2c2cc(NS(C)(=O)=O)ccc21	-36	105	101	i
O=C1C(c2ccnc3ccccc23)=C(O)c2ccccc21	0	92	114	-10
CC1CCN(C(=O)COc2ccc(F)cc2)CC1	17	101	103	-6
CCc1ccc(NC(=O)c2ccc(NC(=O)C3CCCO3)cc2)cc1 (configuration not stated)	-13	98	99	9
CN(C)c1ccc(/C=C/CN2CCCCCC2)cc1	-19	102	102	-66
CCn1c(=O)c(CCc2ccccc2)nc2cc(S(=O)(=O)N(C)C)ccc21	1	105	109	-8
CN(C)S(=O)(=O)NC1CC(=O)N(c2ccc(F)cc2)C1 (configuration not stated)	-21	105	105	-14
CCOC(=O)NC(=S)Nc1ccc(NC(=O)c2cc(Cl)ccc2O)c(Cl)c1	-34	105	106	-20
CCOC(=O)/C=C1\SCC(=O)N1C(C)C(=O)Nc1ccc2c(c1)OCCO2 (configuration not stated)	5	100	103	0
COc1ccc(Nc2nc(NC(=O)Nc3ccc(Cl)cc3)n[nH]2)cc1	-15	106	107	.
O=C(NC1CCCCC1)C(c1cccs1)N(Cc1ccco1)C(=O)C1COc2ccccc2O1 (configuration not stated)	23	100	102	-8
CC(C)N1C(=O)S/C(=C/c2ccc3c(c2)OCCO3)C1=O	-24	103	102	-5
O=P(/C(=N/O)Sc1ccccc1)(N1CCOCC1)N1CCOCC1	3	100	101	-2
COc1cccc(C(=O)Nc2cccnc2)c1	13	102	103	4
CC1CCN(S(=O)(=O)c2ccc3c(c2)OCC(=O)N3)CC1	17	101	104	10
C=CCc1c(C)nc(C)nc1NCCO	1	104	110	.
COc1ccc(Cl)cc1C(=O)NC1CCCC1	-15	107	111	-7
O=C(CCN1C(=O)c2ccccc2S1(=O)=O)NCc1ccccc1	-9	.	.	7
CCN1C/C(=C/c2cc(C)n(C3CC3)c2C)C(=O)/C(=C\c2cc(C)n(C3CC3)c2C)C1	-40	45	234	10
Oc1ccc2nnc3c(Br)cnn3c2c1	-228	70	191	17
COC(=O)c1cc(S(=O)(=O)N(Cc2ccc(OC)cc2)Cc2cccn2C)oc1C	-31	102	99	-12
COc1ccc(-n2nc(C(=O)Nc3ccc4c(c3)OCCO4)c3c4ccccc4n(C)c3c2=O)cc1	-11	100	101	3
CC(C)(C)CC(=O)NCc1ccccn1	-19	102	102	.
Cc1ccc(C(=O)N2CCC(C(=O)O)CC2)cc1	-25	101	99	0
CCCCN(Cc1ccccc1)c1ncnc2nc[nH]c12	7	101	102	2
C=CCOc1ccc2c(C)cc(=O)oc2c1	-10	101	100	116
Cn1cc(S(=O)(=O)N2CCCC2)cc1C(=O)NCc1ccccc1	-17	104	98	0
CCOC(=O)c1c(-n2cnnn2)sc(C)c1C	5	97	97	i
Nc1nc(-c2ccccc2)c(N=Nc2cccnc2)s1	-21	105	91	24
C=CCn1c(O)c(CN2CCOCC2)c(C)c(C#N)c1=O	-31	100	101	38
COc1cccc(C(=O)N2c3ccccc3C(Nc3ccccc3)CC2C)c1 (configuration not stated)	-5	105	109	-11
C1=CC2CCC(C1)N2CCN1C2C=CCC1CC2	-3	106	110	.
CNC(=O)CSc1nc2ccccc2n1-c1ccccc1	-4	96	101	-8
Cc1cc(N)c(O)cc1C	-129	109	119	100*
CCOc1ccc(C(=O)N[C@H](C(=O)NC2CCCCC2)C(C)C)cc1	9	99	97	7
O=C1C2C3C=CC(C3)C2C(=O)N1Nc1ccccc1 (configuration not stated)	2	103	105	-5
O=C(CCc1nnc2n(Cc3ccccc3)c(=O)c3ccccc3n12)N1CCN(C(=O)c2ccco2)CC1	-19	100	101	0
Cc1csc(=O)n1CC(=O)OCC(=O)NCc1cccs1	-17	103	107	-6
O=C1CC(c2ccco2)CC2=C1C(c1ccco1)N(C(=O)c1ccccc1)c1ccccc1N2 (configuration not stated)	-3	102	101	52
Cc1ccc(S(=O)(=O)NCC(O)c2ccccc2)cc1 (configuration not stated)	8	101	97	-5
CCN(Cc1ccccc1)C(c1ccccn1)c1nnnn1C(C)(C)CC (configuration not stated)	23	99	103	3
COc1ccc(OC)c(/C(C)=N/N=C(N)N)c1	-9	103	106	-5
O=C(O)CCC(=O)NCc1ccccn1	-18	102	100	-2
O=C(Nc1ccccc1)OCN1C(=O)c2ccccc2C1=O	-19	102	97	-8
CN(C(=O)COC(=O)c1ccc(S(=O)(=O)N(C)C)cc1)c1ccccc1	-5	104	103	0
O=C(Nc1ccc(F)c(F)c1)c1cc(S(=O)(=O)NCc2ccc(F)cc2)ccc1F	-25	103	103	-11
COc1ccc(CCNC(=O)Cc2c(SC)c3ccccc3n2Cc2ccccc2)cc1OC	-50	106	109	.

Continued.
SMILES	MenB inh	PV pol inh	PV pol inh intensity	Mtb MbtI inh
CCN1CCN(C(=O)c2cn(CC)c(=O)c3cc(OC)c(OC)cc23)CC1	-15	98	99	23
CCOC(=O)C(C(C)C)C(N)Cc1ccc(F)cc1 (configuration not stated)	11	99	104	-24
CC1(C)C(=O)Nc2ccccc2N1C(=O)COc1ncnc2ccccc12	1	.	.	7
CC1CCN(CN2C(=S)SC3=NC(=O)CCCN32)CC1	-28	102	103	68
COC(=O)C1=C(C)NC(C)=C(C(=O)OC(C)C)C1c1cccc2nonc12 (configuration not stated)	-10	99	99	2
CC(NC(=O)C1CCCN(c2nnc(-n3cccc3)s2)C1)c1ccc2c(c1)OCCO2 (configuration not stated)	-20	105	110	-4
Cc1cccc2c1NC1(CCCC1)CC2C (configuration not stated)	-9	100	103	6
CC(C)(C)c1ccc(Cn2c(=N)n(CCO)c3ccccc32)cc1	6	100	102	1
Cc1cc2ncn(S(=O)(=O)c3ccc(S(N)(=O)=O)cc3)c2cc1C	-21	104	102	-3
CC1CCC(C(C)C)C(OC(=O)CN2C(=O)c3ccccc3C2=O)C1 (configuration not stated)	-24	106	103	2

Single entries from the results shown:
`CC(C)(C)c1ccc(Cn2c(=N)n(CCO)c3ccccc32)cc1` in MenB inh shows 6
`Cc1cccc2c1NC1(CCCC1)CC2C` (configuration not stated) in PV pol inh shows 100

Remaining list, next part:
SMILES	MenB inh	PV pol inh	PV pol inh intensity	Mtb MbtI inh
O=C(COC(=O)c1ccc(Br)o1)c1ccc(Cl)c(Cl)c1	-25	98	103	-1
C=C1N(c2ccccc2)C(=O)OC1(C)CC (configuration not stated)	-13	103	103	.
CN1C(C(=O)N2CCCCC2)=CC(c2cccs2)=NS1(=O)=O	-8	103	103	-12
OC(CSc1nc2ccccc2[nH]1)c1ccccc1 (configuration not stated)	-6	106	99	1
C=CCn1c(SCC(N)=O)nnc1-c1ccccc1O	-25	101	102	5
COC(=O)Nc1nc2ccc(Sc3ccccc3)cc2[nH]1	2&-2	101&97	101&99	-3&-7
Cc1nc2c(C(=O)NCC3CCCO3)cnn2c(C)c1Cc1ccc(F)cc1 (configuration not stated)	-18	102	103	38
CCN(CC)c1cc(=O)n2c(n1)SCCC2	-10	101	107	-1
Cc1cc2n(n1)C(O)(C(F)(F)F)CC(O)(C(F)(F)F)N2 (configuration not stated)	-17	100	102	-13
Cc1nc2c(C(=O)NCCC(C)C)c[nH]n2c(=O)c1Cl	-12	101	99	63
CCCCC(=O)Nc1ccc(NC(=O)C2CC2)nc1	-6	94	113	0
Cn1c(O)c(/C=N/C(N)=S)c(=O)n(C)c1=O	-82	123	128	-12
CC[C@H]1C2CC3[C@@H]4N(C)c5ccccc5[C@]45C[C@@H](C2C5O)N3[C@@H]1O (some centres not stated)	-6	100	99	-16
NC(N)=N/N=C/c1cn(-c2ccccc2)nc1-c1ccccc1	-35	98	105	25
O=C(Cn1cccc1C(=O)c1ccccc1)NCCCN1CCN(C2CCCCC2)CC1	-121	105	103	5
COc1ccc(CN2CCC(C(=O)NC3CCCC3)CC2)cc1	-32	100	96	-2
O=C1/C(=C/c2ccccc2O)CC/C1=C\c1ccccc1O	-57	101	102	-13
O=C(c1cccnc1)N(Cc1ccco1)Cc1cc2ccccc2[nH]c1=O	12	101	102	91
CCN(C(=O)Nc1ccccc1)C1CCCCC1	-2	101	102	5
Cc1ccc(OCCOc2ncnc3sccc23)cc1	8	101	108	-5

Some of the entries so far, with two lines to a compound:
Screens in order – MenB inh | PV pol inh | PV pol inh intensity | Mtb MbtI inh
- Cc1nc2c(C(=O)NCC3CCCO3)cnn2c(C)c1Cc1ccc(F)cc1 (configuration not stated)
 : -18 | 102 | 103 | 38
- CCN(CC)c1cc(=O)n2c(n1)SCCC2
 : -10 | 101 | 107 | -1
- Cc1cc2n(n1)C(O)(C(F)(F)F)CC(O)(C(F)(F)F)N2 (configuration not stated)
 : -17 | 100 | 102 | -13
- Cc1nc2c(C(=O)NCCC(C)C)c[nH]n2c(=O)c1Cl
 : -12 | 101 | 99 | 63
- CCCCC(=O)Nc1ccc(NC(=O)C2CC2)nc1
 : -6 | 94 | 113 | 0
- Cn1c(O)c(/C=N/C(N)=S)c(=O)n(C)c1=O
 : -82 | 123 | 128 | -12
- CC[C@H]1C2CC3[C@@H]4N(C)c5ccccc5[C@]45C[C@@H](C2C5O)N3[C@@H]1O (some centres not stated)
 : -6 | 100 | 99 | -16
- NC(N)=N/N=C/c1cn(-c2ccccc2)nc1-c1ccccc1
 : -35 | 98 | 105 | 25
- O=C(Cn1cccc1C(=O)c1ccccc1)NCCCN1CCN(C2CCCCC2)CC1
 : -121 | 105 | 103 | 5
- COc1ccc(CN2CCC(C(=O)NC3CCCC3)CC2)cc1
 : -32 | 100 | 96 | -2
- O=C1/C(=C/c2ccccc2O)CC/C1=C\c1ccccc1O
 : -57 | 101 | 102 | -13
- O=C(c1cccnc1)N(Cc1ccco1)Cc1cc2ccccc2[nH]c1=O
 : 12 | 101 | 102 | 91
- CCN(C(=O)Nc1ccccc1)C1CCCCC1
 : -2 | 101 | 102 | 5
- Cc1ccc(OCCOc2ncnc3sccc23)cc1
 : 8 | 101 | 108 | -5

Other records
SMILES	MenB inh	PV pol inh	PV pol inh intensity	Mtb MbtI inh
Cc1cc(-c2ccc(S(=O)(=O)N3CCC(C)CC3)cc2)on1	-22	103	104	-18
CC(C)(C)NC(=O)NC(=O)CN1CCCCCCC1	-4	100	103	9
O=c1oc2ccccc2n1CN1CCN(Cc2ccccc2)CC1	-10	102	104	1
COc1ccccc1OCc1nc(C#N)c(N2CC(C)CC(C)C2)o1 (configuration not stated)	-25	105	108	4
COC(=O)CCC(=O)Nc1ccccc1	-6	103	104	.
CC(C)C1(C)C(=O)N=C2c3ccccc3C(=O)N21 (configuration not stated)	-23	104	109	-16
Cc1cccc(Oc2ccccc2NC(=O)NC(C)(C)C)c1	-41	106	103	106
CN(C(=O)Oc1ccccc1)c1ccc(C(O)(C(F)(F)F)C(F)(F)F)cc1	-57	101	105	-5
CC(CN(C)C)OC(=O)c1ccc2c(c1)OCO2 (configuration not stated)	-11	100	104	39
CCCCc1c(C)nc(SCc2ccccc2)[nH]c1=O	-18	103	105	-8
O=C(c1ccc(Cl)c(S(=O)(=O)N2CCOCC2)c1)N1CCN(c2ccccc2F)CC1	-27	107	107	-2
Cc1nnc(SCC(=O)Nc2cccc(C(F)(F)F)c2)o1	10	101	103	4
OCC(O)C1OC(c2ccccc2)OCC1O (configuration not stated)	-18	104	92	.
O=S(=O)(c1ccccc1)c1nc(N(CCO)c2ccccc2)sc1Cl	-16	106	103	2
CC(=O)OC(C#N)[C@H]1O[C@@H]2OC(C)(C)O[C@@H]2[C@H]1OC(C)=O (some centres not stated)	4	108	109	-13
CNCc1cccs1	-19	104	104	16
Cc1cc(CN)c2[nH]c(C)c(C)c2c1	-42	105	101	90
Cc1c(CCC(=O)O)c(=O)[nH]c2ccccc12	-34	105	103	50
CCCc1nnc(NC(=O)c2oc3cc(C)c(C)cc3c2C)s1	-8	100	110	5
C/C(N)=C(/C#N)C(=O)COc1ncnc2c1cnn2-c1ccccc1	-8	105	135	0
COc1ccc(-c2cc(-c3ccc(Br)cc3)[nH]c(=O)n2)cc1	-19	107	107	.
N#C/C(=C/C=C/c1ccco1)c1nc2ccccc2[nH]1	i	110	140	28
CC(C)(C)OC(=O)NCc1cccs1	33*	102	101	6
O=C(O)c1[nH]c2ccc(Cl)cc2c1CC(=O)N1CCC2(CC1)OCCO2	-20	102	94	8
O=C(CCC1CCCC1)OCC(=O)N1CCOCC1	.	101	97	-3
CC(=O)N1CN(C2CCCC2)Cc2c1sc1c2CCCC1	11	106	102	-6
Cc1cc(C)n(-c2nc3ccccc3nc2NCCc2ccccc2)n1	-1	103	100	54
COc1ccc(-n2c(SCC(=O)N3CCCc4ccccc43)nc3c(c2=O)SCC3)cc1OC	-26	100	106	12
CCCC(C(=O)OCCN(CC)CC)(c1ccccc1)c1ccccc1	-2&-7	100&100	103&98	-12&-15
O=C(NC1CCCC1)c1ncoc1-c1ccc2ccccc2c1	-29	101	101	89
N#Cc1ccc(COC(=O)c2cnc3sccn3c2=O)cc1	3	103	96	107
COc1ccccc1N(CN1CCCC1=O)C(=O)COc1ccc(Cl)cc1Cl	-31	102	105	-4
CNc1ccc(C(O)(C(F)(F)F)C(F)(F)F)cc1	7	101	101	-12
CC(C)Nc1nc(NC(C)C)nc(Sc2nn(C)c(=S)s2)n1	-10	103	99	18
C/C(Cc1ncn(-c2cc(C)on2)n1)=N\O	7	105	109	-12

High-throughput results from PubChem BioAssay.
